Screening data (PubChem)
Cruzain inh noDet – blocks cruzain activity in detergent-free assay; P25779; purified cruzain, Z-FR-AMC fluorescence, no detergent; Potency, µM, without a hit: max response, negative = inhibition, hits mostly inhibitors; 200,000 compounds, 2.3% hits;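 also: plate controls were enzyme without inhibitor for no effect and buffer without enzyme for full effect; nearly all actives have a fitted effect of over 40% in size; top concentration of the series not given in the record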
Target sequence (P25779 123-467 limits assumed): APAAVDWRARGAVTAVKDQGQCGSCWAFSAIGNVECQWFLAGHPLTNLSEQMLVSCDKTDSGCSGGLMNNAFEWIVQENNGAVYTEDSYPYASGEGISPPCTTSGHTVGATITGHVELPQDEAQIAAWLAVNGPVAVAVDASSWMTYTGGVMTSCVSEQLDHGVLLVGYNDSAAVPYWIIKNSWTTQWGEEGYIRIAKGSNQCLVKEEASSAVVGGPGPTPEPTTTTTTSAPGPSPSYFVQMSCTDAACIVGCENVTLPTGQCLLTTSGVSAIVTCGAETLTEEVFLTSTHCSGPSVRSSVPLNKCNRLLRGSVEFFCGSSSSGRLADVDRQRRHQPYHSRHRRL
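Purified cruzain at 1.5 nM, pre-incubated 15 min with compound at room temperature in 100 mM sodium acetate pH 5.5, 5 mM DTT, 0.00005% Triton X-100. Reaction started with 2 uM Z-FR-AMC; AMC fluorescence increase over 60 s gives rate.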
NS1 inh – blocks influenza NS1 protein function; Potency, µM (top dose mostly 46.1 µM), inactives show at the highest dose activity, positive = more growth; AID 2326; S. cerevisiae slowed by influenza A NS1, growth recovery by OD600; 270,000 compounds, 0.4% hits; active means well fitted rising curve with a large enough effect; inconclusive means small, poorly fitted or top-dose-only effect; inactive means no such curve, though single readings can be large or run the other way; also: nearly all actives have a fitted effect of over 50% in size
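Read-out: OD600 growth recovery of NS1-expressing budding yeast. Cells grown overnight at 30C in -URA glucose medium, washed, resuspended and diluted 1:100 in 2% galactose assay medium, pH 6.0. Same strain lacking NS1 served as positive control.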
Marburg entry inh – inhibitors of Marburg virus binding or cell entry; Marburg virus pseudotyped entry inhibition, cell reporter; control for the full effect not named in the record; about a third of the inactives were read at about 46 µM; Potency, µM (series often up to 37.8 µM), for the others: at the highest dose activity change, negative = inhibition, actives largely listed as inhibitors; 300,000 compounds, 1.8% hits; AID 540276; active = well fitted inhibition curve with a large enough effect; inconclusive = small, poorly fitted or top-dose-only effect, or effect the other way; inactive = flat fitted curve, though single readings scatter; tested in HEK293 cells; about a fifth of its hits are not listed in these tables; also: % is scaled to controls: 0 for no effect and ±100 for the full control effect; luciferase read-out
StopGo reporter – lowers the luciferase signal of an FMDV 2A StopGo reporter | Potency, µM (titrated, usually from 57.9 µM), for the others: at the highest dose signal change, negative = less light | human cells with a luciferase reporter of 2A StopGo recoding; control for the full effect not named in the record | AID 1159524 | 410,000 compounds, 1.2% hits; active = well fitted falling curve with a large enough effect; inconclusive = small, poorly fitted or top-dose-only effect; inactive = no such curve, though single readings can be large or run the other way; tested in HEK293T cells; also: % is scaled to controls: 0 for no effect and ±100 for the full control effect; nearly all actives have a fitted effect of over 45% in size; luciferase light after 4 h
SARS PLpro yeast – blocks SARS-CoV papain-like protease in a yeast assay; 330,000 compounds, 0.19% hits; AID 485353; S. cerevisiae expressing SARS-CoV PLpro, growth rescue; control for the full effect not named in the record; Potency, µM (highest dose often 32.9 µM), without a hit: top-dose activity, positive = growth rescue; active means well fitted rising curve with a large enough effect; inconclusive means small, poorly fitted or top-dose-only effect; inactive means no such curve, though single readings can be large or run the other way; also: 0% is about no effect; nearly all actives have a fitted effect of over 55% in size; growth read by luminescence after 48 h
Lassa entry inh – blocks Lassa virus binding to or entry into cells; AID 540256; Lassa virus pseudotype entry inhibition, cell reporter; control for the full effect not named in the record; Potency, µM (top dose mostly 37.9 µM), without a hit: at the highest dose activity change, negative = inhibition, most hits filed as inhibitors; 300,000 compounds, 1.2% hits; active means well fitted inhibition curve with a large enough effect; inconclusive means small, poorly fitted or top-dose-only effect, or effect the other way; inactive means flat fitted curve, though single readings scatter; tested in HEK293 cells; also: % is scaled to controls: 0 for no effect and ±100 for the full control effect; nearly all actives have a fitted effect of over 50% in size; luciferase read-out
RE007 growth inh – less growth of the S. pombe RE007 Vpr strain; Potency, µM (series often up to 92.2 µM), for the others: at the top dose activity change, negative = less growth; S. pombe RE007 Vpr strain, BacTiter-Glo ATP luminescence, 24 h; control for the full effect not named in the record; 360,000 compounds, 0.21% hits; AID 651644; active = well fitted falling curve with a large enough effect; inconclusive = small, poorly fitted or top-dose-only effect; inactive = no such curve, though single readings can be large or run the other way;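 also: % is scaled to controls: 0 for no effect and ±100 for the full control effect; nearly all actives have a fitted effect of over 50% in size; the assay follows cell death caused by Vpr and the record does not say whether a fall means rescue or toxicity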
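Fission yeast strain RE007, carrying one chromosomally integrated HIV-1 vpr copy, was seeded at OD 0.01 in PMG+AL medium with 23 nL pinned compound. After 24 h at 30 °C and 99% humidity, viability was read by BacTiter-Glo luminescence.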
Cruzain inh Det – inhibitors of Trypanosoma cruzi cruzain with detergent | P25779 | purified cruzain, Z-FR-AMC fluorescence, 0.01% Triton | Potency, µM, without a hit: max response, negative = inhibition, usual class: inhibitors | 200,000 compounds, 0.43% hits | AID 1478;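 also: plate controls were neutral wells for no effect and buffer without enzyme for full effect; nearly all actives have a fitted effect of over 40% in size; top concentration of the series not given in the record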
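Read-out: AMC fluorescence (360 nm excitation, 450 nm emission), four reads over 2 min, first-to-third difference used. Conditions: cruzain 1.5 nM, Z-FR-AMC 2 uM, pH 5.5 acetate, 5 mM DTT, 0.01% Triton X-100.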
* hit, by the source's call; u = inconclusive; x = not tested or not shown; & = joins results of further samples; [ ] = remark or other dose. Unless noted, calls follow the shape of the dose curve; as a rule, active = well fitted curve in the direction sought with a large enough effect; inconclusive = small, poorly fitted or top-dose-only effect, or another doubt; inactive = no such curve, though single readings can be large; an effect the other way counts as inactive or inconclusive. Potency is read from the fitted curve at half-maximal effect. Compounds as they come (roughly 4.8% active in at least one column).

smiles,RE007 growth inh,NS1 inh,Cruzain inh Det,Marburg entry inh,Lassa entry inh,SARS PLpro yeast,Cruzain inh noDet,StopGo reporter
C=CCOn1c(=O)c(-c2cc3ccccc3o2)[n+]([O-])c2ccccc21,-20%,-10%,6.3%,u,3%,-9%,-3%,17%
C[C@@H](NC(=O)[C@@H]1Cc2ccccc2CN1)C(=O)NCc1ccco1,3%,3%,x,21%[46.1 µM],5%[46.1 µM],8%,x,11%
CN(C)/C(=N\S(=O)(=O)c1ccc(Cl)cc1)c1ccc(F)cc1,-3%,-21%,x,13%[46.1 µM],u,2%,x,4%
Cc1cccc(Nc2cc(=O)[nH]c(=O)[nH]2)c1C,-4%,1%,-0.3%,3%,0%,-14%,7%,-13%
CCCSc1nc2sc3c(c2c(=O)n1-c1ccc(C)c(Cl)c1)CCN(C(C)=O)C3,x,x,-2.7%,-29%[46.1 µM],-24%[46.1 µM],x,u,0%
Nc1c(NCCC2=CCCCC2)c(=O)[nH]c(=O)n1Cc1ccccc1,7%,13%,-4.6%,-12%,-1%,16%,-12%,-18%
CC(C)(C)c1nc2scc(-c3cccs3)c2c(=O)o1,u,-15%,-1.4%,17%,5%,-11%,-27%,-27%
COc1ccccc1OCC(=O)N1CCN(C(=O)c2ccco2)CC1,-1%,-1%,x,-4%,7%,0%,x,-6%
Cc1ccccc1C(=O)NNC1=NCCC1,-6%,7%,3.2%,-8%,-1%,3%,-1%,15%
COc1cccc(CNC(=O)CCC(=O)N2CC3CCCN3c3ccccc32)c1 (stereo not drawn),x,x,-4.8%,-11%[46.1 µM],21%[46.1 µM],x,9%,-4%
Cc1ccc(C(=O)N/C(=C\c2ccccc2F)c2nc(=S)[nH][nH]2)cc1,-11%,x,x,1%[46.1 µM],7%,0%,x,-2%
Nc1ccc(N=Nc2ccccc2)c2cccnc12,-22%,10%,x,x,x,-4%,x,37%[activator]
Cc1ccc(C(=O)n2nc(-c3ccco3)nc2NCc2cccs2)cc1,x,x,-1.6%,6%[46.1 µM],11%[46.1 µM],x,-6%,5%
CC1(C)CC(=O)C2=C(C1)Nc1ccccc1NC2c1ccccc1F (stereo not drawn),1%,6%,x,x,x,-2%,x,6%
COc1ccc(C(=O)Nc2ccccc2-c2nnn(CC(N)=O)n2)cc1,-4%,x,x,-4%[46.1 µM],2%,x,x,u
S=C(NCc1ccc2c(c1)OCO2)NC1CC1,-3%,4%,x,-21%[14.2 µM],6%,1%,x,20%
O=C(CN1C(=O)C2C3C=CC(C3)C2C1=O)NCCc1ccccc1 (stereo not drawn),u,-4%,3.6%,u,2%,3%,-8%,6%
Cc1ccc(S(=O)(=O)Nc2ccccc2C(=O)Nc2ccc(S(=O)(=O)Nc3nccc(C)n3)cc2)cc1,2%,5%,-8.8%,4%,3%,-6%,22%,6%
COc1ccc(N2CCN(C(=O)CNC(=O)Cc3ccc(Cl)cc3)CC2)cc1,-1%,7%,x,-21%,u,-7%,x,-20%
Cc1ccc(S(=O)(=O)N2CCC(C(=O)Nc3ccccc3N3CCCCC3)CC2)cc1,-3%,5µM*,1.8%,u,u,2%,-22%,-8%
CCC(C)(C)NC(=O)CC(c1ccc(OC)cc1)n1cccc1 (stereo not drawn),2%,-5%,0.8%,-16%,-9%,-4%,0%,-19%
COc1ccc(NC(=O)CCNC(=O)Cn2cnc3sc4c(c3c2=O)CCCC4)c(OC)c1,21%,-7%,x,0%[46.1 µM],-2%,-7%,x,0%
CCCC/C=C/C(NC(=O)CCc1ccccc1)c1ccccc1 (stereo not drawn),0%,-42%,-7.5%&-4.7%,-19%,-5%,-36%,-5%&-5%,-12%
CCOC(=O)N1CCN(C(=O)CSc2nnc(-c3ccc(C(C)(C)C)cc3)o2)CC1,3%,-26%,-2.0%,u,7%,-18%,u,u
Cc1c(Cl)cccc1N1C(=O)CC(NNC(=O)c2cccnc2)C1=O (stereo not drawn),4%,5%,-6.1%,-9%,6%,11%,4%,-6%
COC(=O)c1ccc(CSc2nc3sc(C(=O)O)c(C)c3c(=O)[nH]2)cc1,-5%,7%,x,-6%[46.1 µM],8%[46.1 µM],0%,x,-8%
O=C(NC(=S)Nc1ccc2[nH]ncc2c1)c1ccccc1,25%,-68%,-2.6%,-20%,-7%,-6%,-3%,14%
COc1ccc(-c2cc(=O)c3c(OC)c(OC)c(OC)cc3o2)cc1,-18%,-6%,x,x,x,-1%,x,5%
Cc1ccc(C(NC(=O)N2CCOCC2)C(Cl)Cl)cc1F (stereo not drawn),11%,-7%,-0.3%,15%,-2%,12%,8%,-11%
CCOc1ccc(CNC(=O)CCc2c(C)nn(-c3ccc(N4CCCCC4)nn3)c2C)cc1,x,x,0.7%,x,-8%[46.1 µM],x,1%,7%
CCCc1nc2nc(C)c(NS(=O)(=O)c3ccc(C(C)(C)C)cc3)c(=O)n2[nH]1,8%,19%,x,0%[46.1 µM],-17%,1%,x,-5%
COc1ccc(Cl)cc1NC(=O)NCCN1CCCCC1,-21%,x,x,u,-2%[46.1 µM],1%,x,13%
CCCCOC(=O)n1c(=O)oc2ccc(S(=O)(=O)N3CCCCC3)cc21,17%,-2%,x,-22%[46.1 µM],1%,-2%,x,-6%
COc1ccc(-c2noc(CCC(=O)N3CCN(c4cc(C)ccc4C)CC3)n2)cc1,-1%,-38%,-0.4%,0%,-12%,-7%,11%,-22%
ClC1(Cl)CC1CSc1ncn[nH]1 (stereo not drawn),-5%,x,x,2%[46.1 µM],x,0%,x,11%
O=C(NC(=S)Nc1cccc(NC(=O)c2ccccc2)c1)c1cccc([N+](=O)[O-])c1,21%,21%,-7.0%,u,-7%,-22%,u,-22%
O=C(NCc1ccccc1Cl)C(=O)NCC1CCCN1S(=O)(=O)c1cccs1 (stereo not drawn),-5%,x,x,9%,0%[46.1 µM],-2%,x,1%
COc1ccc(N2CCN(c3ncnc4c3cnn4-c3ccc(C)cc3C)CC2)cc1,-4%,-2%,-2.8%,3%&-25%,-25%,-7%,9%,u
Cc1oc(=O)c(NC(=O)c2ccccc2)cc1C(C)O (stereo not drawn),-3%,3%,x,x,x,-1%,x,35%[activator]
Cc1ccc(C(=O)N/C(=C\c2cccs2)C(=O)N2CCN(C)CC2)cc1C,-18%,-3%,x,-4%,2%,-10%,x,-12%
CCOC(=O)c1ccc2c(c1)nc(SCC(=O)N1CCOCC1)n2CC,11%,-4%,x,-3%[46.1 µM],16%[46.1 µM],1%,x,-9%
N#Cc1cc(-c2ccccc2)c[nH]c1=O,14%,1%,-10%,-1%,u,2%,8%,8%
CCC(=O)Nc1c(C(=O)N2CCCCCC2)cnn1-c1ccc(C)c(C)c1,-14%,-22%,2.0%,-8%,7%,9%,-9%,19%
Cc1cc(C)cc(OCC(=O)Nc2cccc3cccnc23)c1,x,x,-5.2%,-4%[46.1 µM],17%[46.1 µM],x,-8%,-18%
CCOc1cc(/C=N/NC(=O)Nc2ccccc2)ccc1O,-5%,-2%,x,u,u,1%,x,67%[activator]

Random excerpt: 2 entries already listed
smiles,RE007 growth inh,NS1 inh,Cruzain inh Det,Marburg entry inh,Lassa entry inh,SARS PLpro yeast,Cruzain inh noDet,StopGo reporter
Cc1ccc(C(=O)N/C(=C\c2cccs2)C(=O)N2CCN(C)CC2)cc1C,-18%,-3%,x,-4%,2%,-10%,x,-12%
CCCCOC(=O)n1c(=O)oc2ccc(S(=O)(=O)N3CCCCC3)cc21,17%,-2%,x,-22%[46.1 µM],1%,-2%,x,-6%

Later entries:
smiles,RE007 growth inh,NS1 inh,Cruzain inh Det,Marburg entry inh,Lassa entry inh,SARS PLpro yeast,Cruzain inh noDet,StopGo reporter
CN(C)c1ccc(-c2sc(Nc3ccccc3)n[n+]2-c2ccc(F)cc2)cc1,-11%,-8%,x,x,x,3%,x,-24%
O=C1C2CC=CCC2C(=O)N1c1ccc(NCCc2ccc(O)cc2)c([N+](=O)[O-])c1 (stereo not drawn),11%,-5%,-9.4%,u,u,-25%,-16%,u
COc1cccc(-c2ccc(NC(=O)C3CCCN(CCCn4cccn4)C3)cc2)c1 (stereo not drawn),6%,2%,x,u,u,-1%,x,35µM*
CCOc1ccccc1NC(=O)c1ccc(-n2cncn2)nc1,2%,3%,x,9%,13%,0%,x,-16%
COc1ccc(/C=N/NC(=O)c2cccc(C(=O)N/N=C/c3ccc(OC)cc3)n2)cc1,3%,u,x,x,x,1%,x,17%
CCCn1cc(SCC(=O)Nc2cc(C)on2)c2ccccc21,13%,-14%,x,24%,-9%,28%,x,-3%
Cc1ccc(CN2CCCn3nc(C(=O)NCc4ccc(OC(C)C)cc4)cc3C2=O)cc1,x,x,-5.2%,x,u,x,u,0%
O=C(Nc1ccc(S(=O)(=O)NCc2ccccc2)cc1)c1ccc(Br)o1,-5%,3%,-5.3%,u,u,20%,12%,28%
CC(C)N(C(=O)CSc1nc2ccccc2n1Cc1ccc(F)cc1)C(C)C,-13%,-26%,-5.3%,-11%,0%,-2%,15%,u
O=C(Nc1ccc(NC(=O)C2CCCCC2)nc1)c1ccccn1,4%,-9%,x,u,u,-1%,x,-2%
CCN(CC)S(=O)(=O)c1ccc(Cl)c(C(=O)NC)c1,16%,2%,3.0%,4%,-5%,3%,0%,3%
CC(C)(C)Cc1nnc(NC(=O)CSc2ccccc2)s1,11%,22%,x,x,x,1%,x,37%[activator]
